# HSV augment – HSV replication enhancement; HSV replication augmentation in cells, fold increase; maximum fold increase; hit rate 0.005% among 220,000; AID 1956;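 active means peak rise of 1.5-fold or more in the series; inconclusive means self-fluorescent or not available for retest; tested in PC3 cells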;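 further: first round at 10 µM; read as green reporter fluorescence; hits show the peak of a series up to 25 µM; 1 = signal of infected wells without compound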
# Insulin prom inh – TRM-6 insulin promoter activity inhibition; hit rate 0.9% among 130,000; TRM-6 cells (human fetal islet line), insulin promoter-eGFP reporter, imaging; reporter expression induced with tamoxifen; inhibition, % at 2 µM;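 active means inhibition above the mean plus 3 SD, with well images judged a real hit on visual review, cut at about 60% in these data, passing the limit was not always enough; inconclusive means inhibition over the cutoff but images rejected on review; inactive means inhibition not above the cutoff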
# GALR2 agonist – GALR2 (human) receptor agonism; O43603; GALR2-expressing cells, agonist activation read-out; activation, %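 (tested at 5 µM)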; hit rate 0.48% among 140,000; AID 803;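 active means above mean plus 3 SD of all compounds, about 5% in these data, not always enough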;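 further: 0% = vehicle buffer wells and 100% = reference agonist at full effect; tested in CHO reporter cells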
# Target sequence (O43603 whole entry, looked up): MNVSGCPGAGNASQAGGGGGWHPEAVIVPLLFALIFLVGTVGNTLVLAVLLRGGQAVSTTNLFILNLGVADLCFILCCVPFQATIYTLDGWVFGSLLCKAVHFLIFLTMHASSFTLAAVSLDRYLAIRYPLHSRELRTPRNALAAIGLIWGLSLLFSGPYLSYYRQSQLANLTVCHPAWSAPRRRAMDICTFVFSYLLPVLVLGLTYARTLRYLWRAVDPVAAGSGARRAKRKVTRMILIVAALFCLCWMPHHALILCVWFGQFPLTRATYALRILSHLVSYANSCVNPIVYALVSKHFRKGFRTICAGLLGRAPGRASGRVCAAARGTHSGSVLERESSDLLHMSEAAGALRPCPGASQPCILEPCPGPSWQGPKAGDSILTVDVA
# PKD1 kinase inh – blocks activity of human protein kinase D1 | Q15139 | PKD1 kinase fluorescence polarization assay | inhibition, %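 (about 10 µM by stock and volumes)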 | hit rate 0.056% among 200,000;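 active means inhibition of 50% or more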;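 further: controls were vehicle for no effect and a reference inhibitor for full effect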
# RGS16-Gao HTS – modulates binding between human RGS16 and Galphao | bead-based flow cytometry RGS16-Galphao binding, fluorescence; actives lie on both sides | binding response (% of control), % at 10 µM | hit rate 0.38% among 220,000;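 active means below 25% or above 175%, edge rows of some plates excepted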;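 further: Galphao activated by GDP with aluminum fluoride before binding; 100% = wells without compound and 0% = beads without RGS; some results beyond the cut were filed as inactive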
# Target sequence (O15492 whole entry, looked up): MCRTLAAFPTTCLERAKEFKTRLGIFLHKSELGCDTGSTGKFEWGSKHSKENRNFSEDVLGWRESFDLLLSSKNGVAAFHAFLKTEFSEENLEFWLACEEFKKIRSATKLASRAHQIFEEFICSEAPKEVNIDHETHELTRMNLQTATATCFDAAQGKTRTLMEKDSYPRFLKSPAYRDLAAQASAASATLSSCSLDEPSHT
# Target sequence (P09471 whole entry, looked up): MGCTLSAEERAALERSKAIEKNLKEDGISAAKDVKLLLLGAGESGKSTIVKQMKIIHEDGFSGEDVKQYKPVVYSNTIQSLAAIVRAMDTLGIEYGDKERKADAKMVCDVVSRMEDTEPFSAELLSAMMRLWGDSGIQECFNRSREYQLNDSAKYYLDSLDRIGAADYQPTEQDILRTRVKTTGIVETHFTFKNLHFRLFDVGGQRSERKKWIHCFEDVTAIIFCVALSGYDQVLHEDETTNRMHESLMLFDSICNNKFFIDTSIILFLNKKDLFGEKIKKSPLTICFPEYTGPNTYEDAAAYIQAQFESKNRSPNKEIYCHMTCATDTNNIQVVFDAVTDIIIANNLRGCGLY
# Insulin prom inh cell count – also measured in Insulin prom inh; calls as there; normalized cell count, %; measured here: cell count, toxicity; reference of the scale not given here;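 cells exposed to compound for 48 h; stained nuclei by imaging scaled within each plate; lower means fewer cells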
# HSV augment primary fold – further read-out of HSV augment, marked with its call; fold increase; compound at 10 µM; measured here: primary screen fold increase 10 uM; tested in PC3 cells;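 GFP signal in the first replicate; 1 = infected wells without compound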
# Numbers without * were called inactive; i = inactive; ? = inconclusive; . = no result given.
SMILES,HSV augment,HSV augment primary fold,Insulin prom inh,Insulin prom inh cell count,GALR2 agonist,PKD1 kinase inh,RGS16-Gao HTS
Cc1cc(N2CCN(Cc3cn(C)nc3-c3ccccc3F)CC2)cc(C)n1,i,0.75,.,.,.,-5.3,101.6
COc1ccc(-c2c3c(=O)n(C)c(=O)n(C)c3cn2-c2cc(OC)ccc2OC)cc1,i,0.91,.,.,-2.5,-13.7,106.2
CCCn1c(SCC(=O)Nc2nc(C)c(C(=O)OC)s2)nnc1C(C)C,i,0.9,58.3,124.8,0.2,7.7,90.3
COC(=O)Cc1ccc(NC(=S)NCc2ccc(Cl)cc2)cc1,i,0.96,6.2,103.2,-0.9,6.7,98.3
Cc1cc(C)cc(-c2nc(-c3ccncc3)no2)c1,i,0.95,.,.,-4.2,-1.6,102.0
CN1CCN(S(=O)(=O)c2ccc(NC(=O)c3ccco3)cc2)CC1,i,0.98,-33.3,167.8,1.2,4.4,105.1
COc1ccc(-c2nc3c4ccccc4ccn3c2CN2CCOCC2)cc1OC,i,0.98,.,.,.,.,97.2
COCCn1c(N)c(N(Cc2ccccc2)C(=O)c2cc3ccccc3o2)c(=O)[nH]c1=O,i,0.99,.,.,.,2.4,101.9
COc1ccccc1N1CCN(CCCNC(=O)Nc2ccccc2)CC1,i,0.96,20.0,83.8,-0.8,-2.8,102.6
CSc1nc(N2CCOCC2)c2c(c1C#N)CC(C)(C)OC2,i,0.83,17.2,98.8,1.7,-6.0,107.7
CC(C)C1COC(c2cccc3ccccc23)=N1 (centres undefined),i,0.77,-30.0,140.0,-0.6,-1.2,96.4
COc1ccc(OCC(=O)N2CCN(C(=O)c3ccco3)CC2)cc1,i,1.04,7.9,172.5,-0.5,-5.2,103.8
COC(=O)[C@H](C)NC(=O)Nc1ccc(S(N)(=O)=O)cc1,i,1.06,-23.1,193.2,-0.9,-4.7,102.4
Cc1ccc(-c2nc(-c3ccccn3)no2)cc1[N+](=O)[O-],i,0.89,.,.,.,.,99.8
Cc1cc(-c2csc(NC(=O)c3ccc(=O)[nH]c3)n2)c(C)n1Cc1ccccc1,i,1.25,.,.,.,-8.4,101.8
O=C(NC1=NCCS1)c1sc2cc(F)ccc2c1Cl,i,1.14,.,.,-0.8,-0.4,93.9
Cn1c(NC(=O)/C=C/c2ccccc2)cc(=O)n(C)c1=O,i,0.93,.,.,-1.9,-17.2,100.7
O=C(Nc1ccc(S(=O)(=O)N2CCOCC2)cc1)C1CCCCC1,i,0.8,26.3,122.8,-2.4,-5.0,103.0
CCCCN(CC)C(=O)c1ccccc1Oc1ccccc1,i,1.05,16.7,109.2,-0.9,-7.5,108.2
Cc1ccccc1C(=O)OC1OC(=O)C(Cl)=C1Nc1ccccc1 (centres undefined),i,0.83,.,.,.,-1.1,99.1
COc1ccc(CNC(=O)c2cccnc2SC)cc1OC,i,0.84,.,.,.,-5.8,61.9
Nc1nc(SCC(=O)Nc2ccccc2)nc2nc3c(cc12)CCCC3,?,.,25.8,73.6,-0.4,4.9,93.9
Cc1cccc(NNC(N)=S)c1,i,1.24,.,.,.,-6.7,104.6
C=CCC1CCCCC12NC(=O)NC2=O (centres undefined),i,0.79,3.7,92.1,-2.5,-9.5,88.4
CC(Cc1ccccc1)NC(=S)CN1CCCC1=S (centres undefined),i,1.57,.,.,.,.,98.3

# Further entries
SMILES,HSV augment,HSV augment primary fold,Insulin prom inh,Insulin prom inh cell count,GALR2 agonist,PKD1 kinase inh,RGS16-Gao HTS
CN(C)S(=O)(=O)N(CC(=O)NCc1ccccc1)c1ccccc1,i,0.93,-183.3,95.0,-1.6,-3.4,103.6
COc1cc(-c2nnc3sc(-c4ccco4)nn23)cc(OC)c1OC,i,0.81,21.9,116.2,4.1,-2.2,106.7
O=C(Nn1c(-c2ccc(F)cc2)nc2ccccc2c1=O)C1CCCCC1,i,0.87,-13.3,102.2,-1.8,-4.2,99.6
COc1ccc(N2C(=O)C3CCCCC3C2=O)cc1NC(=O)c1ccccc1 (centres undefined),i,1.02,-13.3,153.3,.,6.6,105.0
COC(=O)CCC/C=C1/SCC(NC(=O)c2ccccc2)C1NC(C)=O (centres undefined),i,1.04,.,.,.,5.2,95.0
O=C(CNc1ccc2c(c1)OCO2)N/N=C\c1ccccc1Cl,i,0.97,14.3,96.3,-0.9,0.4,98.7
CCOc1ccc2nc(N(CCN(CC)CC)C(=O)c3ccc([N+](=O)[O-])cc3)sc2c1,i,1,-82.3,78.3,.,-1.5,109.3
c1ccc2c(c1)nc(NC1CCCCC1)c1nncn12,i,0.88,.,.,0.8,-1.3,106.5
COCC(COCCCNC(=O)Nc1ccc(Br)cc1)OC (centres undefined),i,0.86,.,.,0.3,-7.7,98.1
Cc1cccc(C(=O)NNC(=O)c2ccc(-c3ccccc3)cc2)c1,i,1.13,-36.7,99.0,3.7,1.3,102.6
CCN(CC)C(=O)CC(c1cc(OC)c(OC)c(OC)c1)c1c(O)cc(OC)cc1OC (centres undefined),i,0.95,.,.,.,.,98.2
NC(=O)COc1ccc(C23CC4CC(CC(C4)C2)C3)cc1,i,0.9,-54.5,164.0,.,-0.1,110.2
CC(C)P(=O)(Cc1cccc(C#N)c1)C(C)C,i,0.87,.,.,-1.3,-8.5,100.8
O=C(CSc1nc2c(sc3ccccc32)c(=O)n1CCCN1CCCC1)NCc1ccco1,i,0.94,0.0,64.1,.,-4.6,189.9
CC(C)N1CN=C(Nc2nc3ccccc3o2)NC1,i,0.99,.,.,.,0.1,102.2
Cc1cccc(NC(=O)Nc2nnc(N3CCCCC3C)s2)c1C (centres undefined),i,0.88,.,.,-3.9,-3.8,100.5
O=C(C[n+]1ccccc1)Nc1c(Cl)cc(Cl)cc1Cl,i,1.04,15.4,47.6,.,5.0,103.1
CCN1C(=O)c2ccccc2S(=O)c2ccc(C(=O)NCCCN3CCCC3=O)cc21 (centres undefined),i,0.87,-42.9,141.5,-1.0,10.4,102.4
CSc1nc(C)nc(N/C=C(\C#N)S(=O)(=O)c2ccccc2Cl)n1,i,1.04,.,.,.,.,98.5
Cc1ccc(-n2nnnc2SCC(=O)Nc2sccc2C#N)cc1,i,1.02,-30.0,102.1,-0.4,-8.6,99.8
CCOc1cc(NC(=S)NCCCN2CCOCC2)c(OCC)cc1NC(=O)C(C)C,i,1.03,21.6,102.8,-1.1,-3.6,114.6
Cc1ccc(CNC(=O)CCC2CCCN(Cc3cccc4ncccc34)C2)o1 (centres undefined),i,0.91,33.3,90.7,.,4.2,98.7
Cc1cccc(C)c1OCCNC(=O)C(=O)NCc1ccco1,i,0.91,.,.,.,0.2,104.9
COc1ccc(S(=O)(=O)Nc2cc(C(=O)NCCCOC(C)C)ccc2N2CCOCC2)cc1,i,0.98,21.4,160.9,.,9.9,98.6
CCC1(c2ccc(Cl)cc2)NC(=O)N(Cc2ccc(C(=O)OC)cc2)C1=O (centres undefined),i,0.89,.,.,.,3.6,103.0

# Other structures follow:
SMILES,HSV augment,HSV augment primary fold,Insulin prom inh,Insulin prom inh cell count,GALR2 agonist,PKD1 kinase inh,RGS16-Gao HTS
COc1ccc(OCC(=O)Nc2cc(OC)cc(OC)c2)cc1,i,1.24,.,.,-1.3,4.1,97.8
NC(=O)c1nnn(-c2cccc(C(F)(F)F)c2)c1-c1ccccc1,i,1.03,.,.,.,.,101.2
Cc1cc(C)c2c(n1)sc1c(-c3ccccc3)c(C#N)c(N)nc12,i,0.59,-90.0,116.5,3.6,-2.3,99.3
CCCCOc1ccc(/C(O)=C2/C(=O)C(=O)N(Cc3cccnc3)C2c2ccncc2)c(C)c1 (centres undefined),i,0.91,38.9,122.9,-2.5,-14.3,105.9
Cc1ccc(-c2nn(-c3cccc(F)c3)cc2CN(Cc2nccn2C)C(C)C)o1,i,1.12,.,.,.,4.7,95.1
CCC(C)(C)n1nnnc1C(C(C)C)N(Cc1ccco1)Cc1cc2cc3c(cc2[nH]c1=O)OCO3 (centres undefined),i,1.13,-51.4,52.8,-0.6,-9.1,100.9
COc1ncnc2c1oc1nc(CC(C)C)c3c(c12)CCCC3,i,0.89,.,.,-1.0,-9.7,108.3
CCCc1[nH]nc2c1C(c1ccc(O)c(OC)c1)C(C#N)=C(N)O2 (centres undefined),.,.,.,.,-1.2,-4.3,104.4
O=C(CS(=O)CC(=O)N(c1cccc(F)c1)C(C(=O)NC1CCCCC1)c1ccco1)Nc1ccc(F)cc1 (centres undefined),i,0.94,18.5,91.5,-1.4,-2.0,98.2
Cc1occc1-c1nnc(SCC(=O)Nc2nc(-c3ccccc3)cs2)o1,i,0.91,25.0,105.0,18.8*,-4.2,101.0
Cc1cc(C(=O)CSc2ncccn2)c(C)n1Cc1ccco1,i,0.93,9.1,99.8,.,-6.2,108.3
C=CCn1c(CNC(=O)c2cccs2)nnc1SCC(=O)c1ccc(Br)cc1,i,0.91,-91.7,99.3,-1.7,-8.6,106.9
O=C(/C=C\Nc1ccc(S(=O)(=O)Nc2ncccn2)cc1)c1cccc2ccccc12,i,1.04,.,.,.,.,99.8
O=C(Cn1nnc2c(cnn2-c2ccccc2)c1=O)NCc1cccs1,?,.,-54.5,151.1,-0.2,3.1,75.3
Cc1ccc(NC(=O)c2cc(S(=O)(=O)NCCC3=CCCCC3)ccc2F)cc1F,i,1.03,-34.4,33.0,-2.3,2.9,94.4
CCCn1c(CCNC(=O)c2cccs2)nc2ccccc21,i,0.77,.,.,2.5,13.7,102.2
COCCNC(=O)C(c1ccccc1C)N(CCOC)C(=O)Cn1nnc2ccccc21 (centres undefined),i,0.97,.,.,-1.6,-10.6,103.7
CCOc1cc(CN2CCN(CCc3ccccc3)C(CCO)C2)ccc1OC (centres undefined),i,0.8,.,.,.,-2.1,101.1
Cc1cccc(C2=N/C(=C\c3cccnc3)C(=O)O2)c1,i,1.01,.,.,-1.6,-7.1,99.6
CCOC(=O)c1ccc(COc2nc3ccccc3nc2-c2ccccc2NC(C)=O)o1,i,1.01,0.0,90.4,-2.0,-4.8,102.4
O=C1OC(Nc2ccc(F)c([N+](=O)[O-])c2)c2ccccc21 (centres undefined),i,0.63,.,.,.,.,106.8
O=C(NCc1ccccn1)c1cccc(NS(=O)(=O)c2cccc(F)c2)c1,i,1.05,-13.3,85.8,-0.1,-5.5,105.9
c1ccc(Cn2nnnc2-c2ccco2)cc1,i,0.69,-50.0,71.7,-1.7,-14.1,101.2
Cc1cccc(-c2noc(-c3ccc(F)cc3)n2)c1,i,0.85,-14.3,119.0,-2.3,-3.7,101.5
Cc1cccc(C)c1NC(=S)N(C)CCc1ccccn1,i,0.93,0.0,103.0,-2.2,-2.0,97.3

# Reprinted at random: four compounds from above
SMILES,HSV augment,HSV augment primary fold,Insulin prom inh,Insulin prom inh cell count,GALR2 agonist,PKD1 kinase inh,RGS16-Gao HTS
Cc1cccc(-c2noc(-c3ccc(F)cc3)n2)c1,i,0.85,-14.3,119.0,-2.3,-3.7,101.5
COc1ncnc2c1oc1nc(CC(C)C)c3c(c12)CCCC3,i,0.89,.,.,-1.0,-9.7,108.3
Cc1ccc(-c2nn(-c3cccc(F)c3)cc2CN(Cc2nccn2C)C(C)C)o1,i,1.12,.,.,.,4.7,95.1
CCOc1cc(CN2CCN(CCc3ccccc3)C(CCO)C2)ccc1OC (centres undefined),i,0.8,.,.,.,-2.1,101.1

# Further results follow:
SMILES,HSV augment,HSV augment primary fold,Insulin prom inh,Insulin prom inh cell count,GALR2 agonist,PKD1 kinase inh,RGS16-Gao HTS
Nc1c(-c2ccccc2)c(CSc2nc3ccccc3[nH]2)nn1-c1ccc(C(=O)O)cc1,i,0.9,.,.,-2.2,3.8,101.0
O=C(C1CCCN(S(=O)(=O)c2ccc(Br)s2)C1)N1CCCCCC1 (centres undefined),i,0.87,-44.8,70.6,-1.5,-9.4,98.9
CCOC(=O)CC(=O)CSc1nnc(Cn2c(=O)sc3ccccc32)n1C,i,0.94,35.7,97.5,-0.5,-15.5,100.2
Nc1[nH]nc2nc3ccccc3cc12,i,1.01,-14.3,51.5,.,1.3,64.4
O=C(O)CNc1nc(-c2ccccc2)c2cc([N+](=O)[O-])ccc2n1,i,0.96,6.5,132.7,-0.2,-5.9,100.4
CN1CCN(C(=O)c2ccc3c(c2)NC(=O)C(N2CCOCC2)S3)CC1 (centres undefined),i,0.99,-29.0,126.3,-2.1,0.8,95.3
CCCOc1ccc(C2/C(=C(\O)c3c(C)[nH]c(C(=O)OC)c3C)C(=O)C(=O)N2CCN(C)C)cc1 (centres undefined),i,0.77,84.6*,59.6*,-2.2,0.1,103.8
COC(=O)c1nn(-c2ccc(C)cc2)c2nnc(Cc3ccccc3)c(=O)n12,i,0.87,4.8,106.6,0.1,-14.5,105.5
O=C1C2C3c4ccccc4C(c4ccccc43)C2C(=O)N1c1cccc2cccnc12 (centres undefined),i,0.79,-23.3,122.0,-2.0,2.3,113.7
CC(C)CCOc1ccc(C2CC(=O)N(C)C2=O)cc1 (centres undefined),i,0.97,.,.,.,-6.0,105.8

# Compound activity as filed in PubChem BioAssay.
